Screens: PubChem BioAssay, ICCB-Longwood Screening Facility, Harvard Medical School
MgrA DNA FP: S. aureus MgrA-DNA binding modulation; AID 602314; actives 0.13% (n = 84,000); inhibition, %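 (about 10 µg/mL by stock and volumes)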; fluorescence polarization;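 active means above 50% in either of two replicates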;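 further: 0% = protein plus DNA without compound and 100% = DNA alone without protein; higher means less MgrA bound to DNA so lower polarization; one replicate is shown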
S aureus helic: blocks Staphylococcus aureus DNA helicase; inhibition, %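 (tested at about 80 µM)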; actives 0.05% (n = 120,000); purified S. aureus helicase, fluorescence unwinding assay; about half of the hits fall short of the stated cut;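 active means both duplicates at 50% or more, or one of them with a favoured structure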;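 further: 0% = mean of negative control wells and 100% = mean of positive control wells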
Numbers without * were called inactive; . = no result given.

SMILES	MgrA DNA FP	S aureus helic
O=C(O)c1nn2cccnc2c1Cl	-7.8	-4
O=C(O)CC1C(=O)NCCN1CC(c1ccccc1)c1ccccc1 (stereo not drawn)	.	-8
N#CC1(c2ccccc2)CCc2c(sc3ncnc(N4CCCC4)c23)C1 (stereo not drawn)	.	9
O=C(O)c1[nH]nc2c1COc1ccccc1-2	.	6
CNS(=O)(=O)c1ccc2nc(N)sc2c1	.	11
COCCNCc1nc(NCCOC)c2c(C)c(C)sc2n1	.	1
COc1cc2c(cc1OC)C(COc1cccc(C(F)(F)F)c1)N(C(=O)c1ccco1)CC2 (stereo not drawn)	-1.7	-3
Clc1ncc(CSCc2ccccc2)s1	-0.3	.
COC(=O)c1c(NC(=O)CN2CCC3(CC2)OCCO3)sc2c1CCCC2	-0.6	0
COC(=O)CNc1c(F)c(F)nc(F)c1F	0.5	15
CC1=C(C(=O)Nc2nccs2)C2(CCCCCC2)OC1=O	.	-12
NNC(=O)C(NC(=O)c1ccccc1)c1n[nH]c(=O)c2ccccc12 (stereo not drawn)	2.1	-4
CCCC1=NN(c2ccccc2)C(=O)/C1=C/c1ccc(Cl)cc1	16	.
CC(=O)Nc1ccc(NCc2cccs2)cc1	-1.3	20
C=C(C)CSC1=C(C#N)C(c2sccc2C)CC(=O)N1 (stereo not drawn)	.	-16
CCN(CC(=O)Nc1ccc(C#N)cc1)C1CCCCC1	.	-18
O=C(NCCCn1ccnc1)c1ccncc1	.	18
Cc1ccc(C(=O)N2CCN(c3cccc4[nH]ccc34)CC2)cc1	-1.5	.
O=C(O)CC(Sc1ccc(Cl)cc1)C(=O)O (stereo not drawn)	-0.1	.
N#CC1(NC(=O)CSc2nnc3ccccn23)CCCCC1	.	10
Fc1cc(Br)ccc1N=Cc1ccc2ncccc2c1	-3.0	14
COc1ccc(N=Cc2cc3ccc(C)cc3nc2Cl)cc1	-2.2	-11
COc1ccc(Nc2cc(C(=O)O)c3ccccc3n2)cc1	.	1
O=C(NC1CCS(=O)(=O)C1)c1ccco1 (stereo not drawn)	-1.6	-7
COc1ccc(CCNC2=CC(=O)CC(C)(C)C2)cc1OC	.	-1

New compounds follow:
SMILES	MgrA DNA FP	S aureus helic
Nc1c2c3c(sc2nc(=O)n1N)CCCC3	1.1	3
O=C(Cn1c(=O)oc2ccccc21)NC(=O)NC1CCCC1	.	1
Cc1cc(C)cc(C(=O)OCC(=O)c2cc3c4c(c2)CC(=O)N4CCC3)c1	.	8
Cc1ccc(C(=O)NN2CCc3cc4ccc(C)cc4nc32)cc1	3.0	-6
COc1ccc(C(=O)Nc2nnc(CCS(=O)(=O)c3ccc4ccccc4c3)s2)cc1OC	25	.
CCN(C(=O)CSc1nnnn1-c1ccccc1)C1CCS(=O)(=O)C1 (stereo not drawn)	.	-11
COc1cccc(N2CCc3c(C)nc4ccc(Cl)cc4c32)c1	.	-1
CCN(CC)CCOC(=O)c1ccc(NC(=O)CCN2C(=O)S/C(=C/c3ccc(Cl)cc3)C2=O)cc1	-2.0	.
COc1ccc2ccc(O)c(CN3CCN(C(=O)C4CC4)CC3)c2c1	.	-5
Cc1ccc(S(=O)(=O)N2CCC(=O)c3ccccc32)cc1	-0.9	2
CCC1CCCCN1C(=O)CN1C(=O)c2ccccc2S1(=O)=O (stereo not drawn)	.	15
CCCCc1ccc(NCc2nc(-c3ccc(C)cc3)no2)cc1	1.9	-11
COc1cc(-c2nc3ncccn3c2Nc2ccc3c(c2)OCO3)ccc1O	.	5
CCn1cc(C(=O)N2CCCCC2)c(=O)c2cc(S(=O)(=O)N3CCCC3)ccc21	0.1	-11
CCCC[C@@H](C)/C=C(C)/C=C(\C)C(=O)NC1=C[C@@](O)(/C=C/C=C/C=C/C(=O)NC2=C(O)CCC2=O)[C@@H]2O[C@@H]2C1=O	-0.1	.
C=CCOc1cccc(C(=O)NCCOC)c1	-1.4	8
C=CCN1C(=O)/C(=C/C=C/c2ccccc2)S/C1=N\c1nnc(CC)s1	-2.1	.
Cc1cc(OCCN2CCOCC2)ccc1C(C)C	.	4
O=C(Cc1c(F)c(F)c(F)c(F)c1F)OC12CC3CC(C1)C(=O)C(C3)C2	.	18
OCCC1CCCCN1CC(O)c1ccccc1 (stereo not drawn)	.	13
O=C(Nc1cccc2ccccc12)OCCn1ncc2ccccc2c1=O	-1.1	.
CC1CCN(S(=O)(=O)c2ccc3[nH]c4c(c3c2)CCCC4)CC1	.	10
CCOC(=O)C1CCN(Cn2c(=S)n(-c3ccc(OC)cc3)c3ccccc32)CC1	.	11
O=C(Nc1ccccc1)C(C(F)(F)F)C(F)(F)F	36	25
Nc1nc(CSc2nnc(C3CC3)n2C2CC2)nc(Nc2ccccc2)n1	.	18

The list continues:
SMILES	MgrA DNA FP	S aureus helic
O=C(c1ncoc1-c1cccs1)N1CCN(Cc2cccc3ccccc23)CC1	-3.2	1
CCCCC1CCC(C(=O)Oc2ccc(OCC)cc2)CC1 (stereo not drawn)	-2.6	9
O=C(COc1ccccc1)Nc1ccc(Cl)c(-c2nc3ccccc3c(=O)o2)c1	.	7
COc1cccc(C(=O)OCC(=O)c2ccccc2)c1OC	2.7	.
C=C(C)C1Cc2nc(N)nc(C)c2C1 (stereo not drawn)	1.2	-16
CN1C(=O)C(=Cc2ccc(-c3cccc(C(=O)O)c3)o2)C(=O)N(C)C1=S	.	15
CC1(C)CN(c2ccc(Br)cc2Br)C1=O	3.0	.
O=C(/C=C/c1cccs1)N1CCCN(C(=O)/C=C/c2cccs2)CC1	2.2	3
CSc1ncc(C(N)=O)c(N)n1	-4.0	.
CC(C#N)(c1ccccc1)c1ccccc1	.	-6
Cc1cc(/C=N/NC(=O)c2cccnc2)c(C)n1CC(C)C	.	-4
COc1ccc(NC(=S)N2CCC(N(C)CCN3CCOCC3)CC2)cc1Cl	.	4
Cc1ccc(C(=O)Nc2ccc3c(c2)n(C)c(=O)n3C)cc1	1.8	-1
O=C1CCCN1CCCn1c(-c2ccco2)csc1=Nc1ccc(F)cc1	.	5
Cc1cc(C)c(CSC2=NCCN2)c(C)c1CSC1=NCCN1	3.0	.
COc1c(Cl)cc(Br)c(OC)c1C(N)=O	-1.5	.
CCOC(=O)C1CCN(CC(O)COCc2ccc(Cl)cc2)CC1 (stereo not drawn)	.	-20
O=C(O)c1ccc(CNCc2ccccc2)s1	-0.2	8
Nc1cc(-c2cccs2)nn1-c1ccc(F)cc1	-1.0	.
COc1ccc(/C=C/C(=O)N2CC(=O)Nc3ccccc32)cc1S(=O)(=O)N1CCOCC1	.	-6
Cn1cc(/C(Cc2ccccc2)=N\O)c2ccccc21	-4.0	-15
CP(=O)(O)C(c1ccccc1)C(F)(F)C(F)(F)C(F)(F)F (stereo not drawn)	.	-15
CCOc1ccc(N=C2SCCCN2C(=O)c2ccc(C#N)cc2)cc1	.	7
CCN(CC)S(=O)(=O)c1ccc2c(c1)nc(CCC(=O)Nc1ccc(C(C)C)cc1)n2CC	.	-3
C/C(N)=C(/C#N)C(=O)CSc1n[nH]c(N)n1	.	-12

More entries:
SMILES	MgrA DNA FP	S aureus helic
CCN(CC)S(=O)(=O)c1cc(C(=O)N2CCN(Cc3ccc4c(c3)OCO4)CC2)ccc1Cl	.	-11
O=C(O)CCC(=O)NCc1ccco1	.	24
CC(C)C(=O)NCc1nc(-c2ccccc2)no1	.	11
O=C1Nc2ccccc2S/C1=C\c1ccc2c(c1)OCO2	0.9	.
S=c1ccc(-c2ccc(Cl)cc2)nn1-c1ccccc1	0.9	4
O=C(CCNc1ccccc1C(=O)O)c1ccccc1	-4.6	8
CC(=O)N1CCc2c(sc(NC(=O)C(C)C)c2C(N)=O)C1	.	-11
O=C(Cn1ncn2cccc2c1=O)N1CCc2ccccc2C1	.	10
Cc1[nH]nc2c1C(c1ccccc1F)N(C)C2=O (stereo not drawn)	-4.0	0
CCN1C(N)=C(C#N)C(c2ccc3[nH]c4ccccc4c3c2)c2nc(C)oc21 (stereo not drawn)	10	-4
Cc1cc(I)ccc1NC(=O)CC(C)C	0.7	-13
COc1ccc(/C=C/C(=O)C(C(N)=O)=C2SCS2)cc1	.	13
Fc1ccc(-c2csc(-c3cccs3)n2)cc1	-1.7	.
CC(C)OC(=O)c1cccc(C(=O)Oc2ccccc2)n1	.	-10
COc1ccc(NC(=O)C(C)NC(=O)c2ccccc2NC(=O)c2ccco2)cc1 (stereo not drawn)	-3.5	11
Cc1c(S(=O)(=O)NCCc2ccccn2)sc2ccc(Cl)cc12	0.9	.
O=C(C1CC2CCCN2C12C(=O)Nc1ccccc12)N1CCN(c2ccccc2)CC1 (stereo not drawn)	.	-6
C=CCSc1n[nH]c(=O)[nH]c1=O	1.9	-1
COc1ccc(C2Nc3ccccc3C(=O)N2c2ccccc2)cc1 (stereo not drawn)	1.0	10
CCN(CC)S(=O)(=O)c1ccc2c3c(cccc13)C(=O)N2C(=O)c1cccnc1	.	4
O=S(=O)(Nc1cccnc1Oc1ccc(Cl)cc1)c1ccc(Cl)cc1	-5.4	.
CC(=O)Nc1ccc(OC(=O)Cc2ccccc2)cc1	.	17
S=c1[nH]n(-c2ccccc2)c(=S)s1	4.5	-13
CNC(=O)Nc1ccc2snnc2c1	0.3	-4
O=C(CSc1nc2ccccc2o1)NCc1n[nH]c(=O)c2ccccc12	2.5	.

The list goes on.
SMILES	MgrA DNA FP	S aureus helic
Cc1nc2sccn2c1C(=O)c1ccc(NC(=O)c2ccc(F)cc2)cc1	2.7	0
Cc1ccc(C)n1NC(=O)c1ccco1	-0.6	.
OCCNc1nc2ccc(Cl)cc2[nH]1	2.1	10
CC(=NC(=S)c1ccc(Cl)cc1)N(C)C	1.9	.
COc1ccccc1N1CCN(CC(O)COc2ccc3c(C)cc(=O)oc3c2)CC1 (stereo not drawn)	.	13
NC(=O)COC(=O)c1ccccc1Oc1ccccc1	-2.0	-9
CCCC(=O)OC1C(=O)c2ccccc2OC1c1ccccc1 (stereo not drawn)	0.3	.
Cc1cc(C)nc(NS(=O)(=O)c2ccc(NC(=O)c3ccccc3Cl)cc2)n1	-2.4	.
C=CCn1nnnc1SCc1cccc(CSc2nnnn2CC=C)c1	-0.2	7
Nc1cc(C(=O)N2CCCC2)cc(C(=O)N2CCCC2)c1	1.2	0
CN1/C(=C\C=N\Nc2ccccn2)C(C)(C)c2ccccc21	.	11
Cc1ccc(N2C(=O)/C(=C/c3cc(Cl)c(OCC(=O)O)c(Cl)c3)C(=O)NC2=S)cc1	4.7	.
CCNC(=S)Nc1ccc(OC)cc1	-2.7	1
CCOC(=O)C1CCN(C(=O)CCS(=O)(=O)Cc2ccccc2)CC1	-0.6	4
Cc1cccc(NC(=O)Cn2cnc3ccccc3c2=O)c1	.	9
CC1=C(C(=O)Nc2ccc(Br)cc2F)C2C(=O)N(C)C=NC2O1 (stereo not drawn)	.	-20
CCOC(=O)N1c2ccc(C(C)C)cc2C=CC1C#N (stereo not drawn)	-2.3	.
NS(=O)(=O)c1ccc(CCNC(=O)CCCn2c(SCC(=O)Nc3nccs3)nc3ccsc3c2=O)cc1	.	7
CN(C(=O)c1coc(=O)c2ccccc12)c1ccc(F)cc1	-0.8	8
CN1C(=O)/C(=C2/SC(=S)N(c3cccc(O)c3)C2=O)c2ccccc21	0.9	3
CCOC(=O)c1ccc(NC(=O)N2CC(C)Oc3ccccc32)cc1 (stereo not drawn)	1.9	3
O=C(CC1C(=O)OCC2CCCCN21)Nc1ccc(I)cc1 (stereo not drawn)	.	8
Nc1ccccc1-c1nc2ccccc2[nH]1	-0.2	.
CCC1CCCCN1C(=O)c1cc(-c2cccc(OC)c2)no1 (stereo not drawn)	.	25
Cc1cc(C)nc(SCCC(=O)N(C)C)n1	4.0	19

Remaining list, next part:
SMILES	MgrA DNA FP	S aureus helic
COC(=O)c1cc2nc(-c3ccc(F)cc3)cc(C(F)(F)F)n2n1	0.3	13
Cc1ccc(C)c(C(=O)NC(C)CN)c1 (stereo not drawn)	-8.2	-8
COc1cc(C(=O)Nc2ccccc2C(=O)N2CCN(C)CC2)cc(OC)c1OC	1.0	8
Oc1[nH]c2ccccc2c1C=NCCN1CCOCC1	1.1	12
CCCOc1ccc2c3c(c(=O)oc2c1C)CCC3	-3.1	3
NC(=O)N(N)c1nc(N2CCCCC2)nc(N2CCCCC2)n1	-1.6	-7
CCOC(=O)/C=C(\C)Sc1cc(=O)oc2ccccc12	-0.8	-2
Nc1nsnc1C(=O)NCCO	-2.2	2
CCOCCOC(=O)C1=C(C)N(C)C(=O)NC1c1ccc(OCc2ccccc2)cc1 (stereo not drawn)	-1.3	.

Structures shown so far containing fluorine:
SMILES	MgrA DNA FP	S aureus helic
COc1cc2c(cc1OC)C(COc1cccc(C(F)(F)F)c1)N(C(=O)c1ccco1)CC2 (stereo not drawn)	-1.7	-3
COC(=O)CNc1c(F)c(F)nc(F)c1F	0.5	15
Fc1cc(Br)ccc1N=Cc1ccc2ncccc2c1	-3.0	14
O=C(Cc1c(F)c(F)c(F)c(F)c1F)OC12CC3CC(C1)C(=O)C(C3)C2	.	18
O=C(Nc1ccccc1)C(C(F)(F)F)C(F)(F)F	36	25
O=C1CCCN1CCCn1c(-c2ccco2)csc1=Nc1ccc(F)cc1	.	5
Nc1cc(-c2cccs2)nn1-c1ccc(F)cc1	-1.0	.
CP(=O)(O)C(c1ccccc1)C(F)(F)C(F)(F)C(F)(F)F (stereo not drawn)	.	-15
Cc1[nH]nc2c1C(c1ccccc1F)N(C)C2=O (stereo not drawn)	-4.0	0
Fc1ccc(-c2csc(-c3cccs3)n2)cc1	-1.7	.
Cc1nc2sccn2c1C(=O)c1ccc(NC(=O)c2ccc(F)cc2)cc1	2.7	0
CC1=C(C(=O)Nc2ccc(Br)cc2F)C2C(=O)N(C)C=NC2O1 (stereo not drawn)	.	-20
CN(C(=O)c1coc(=O)c2ccccc12)c1ccc(F)cc1	-0.8	8
COC(=O)c1cc2nc(-c3ccc(F)cc3)cc(C(F)(F)F)n2n1	0.3	13

This is a subset. The share of hits here may be higher or lower than overall.
